# SARS PLpro yeast = inhibitors of SARS-CoV papain-like protease in yeast; S. cerevisiae expressing SARS-CoV PLpro, growth rescue; control for the full effect not named in the record; 0.19% of 330,000 active; Potency, µM (titrated, usually from 32.9 µM), without a hit: at the top dose activity, positive = growth rescue; AID 485353; note: 0% is about no effect; nearly all actives have a fitted effect of over 55% in size; growth read by luminescence after 48 h
# RE007 growth inh = less growth of the S. pombe RE007 Vpr strain; S. pombe RE007 Vpr strain, BacTiter-Glo ATP luminescence, 24 h; control for the full effect not named in the record; Potency, µM (top dose mostly 92.2 µM), for the others: at the highest dose activity change, negative = less growth; 0.21% of 360,000 active; AID 651644; active = well fitted falling curve with a large enough effect; inconclusive = small, poorly fitted or top-dose-only effect; inactive = no such curve, though single readings can be large or run the other way;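 note: % is set by controls: 0 for no effect and ±100 for the full control effect; nearly all actives have a fitted effect of over 50% in size; the assay follows cell death caused by Vpr and the record does not say whether a fall means rescue or toxicity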
#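 Fission yeast RE007 carrying one integrated HIV-1 vpr copy, seeded at OD 0.01 in PMG+AL medium with 23 nL pinned compound. Grown 24 h at 30 degrees; viability read by BacTiter-Glo luminescence after 5 min.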
# Cruzain inh Det = cruzain (T. cruzi) inhibition with detergent. purified cruzain, Z-FR-AMC fluorescence, 0.01% Triton. Potency, µM, inactives show max response, negative = inhibition, actives largely listed as inhibitors. 0.43% of 200,000 active. AID 1478; active = well fitted curve in the direction sought with a large enough effect; inconclusive = small, poorly fitted or top-dose-only effect, or another doubt; inactive = no such curve, though single readings can be large; an effect the other way counts as inactive or inconclusive;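 note: plate controls were neutral wells for no effect and buffer without enzyme for full effect; nearly all actives have a fitted effect of over 40% in size; top concentration of the series not given in the record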
# Target sequence (P25779 123-467 limits assumed): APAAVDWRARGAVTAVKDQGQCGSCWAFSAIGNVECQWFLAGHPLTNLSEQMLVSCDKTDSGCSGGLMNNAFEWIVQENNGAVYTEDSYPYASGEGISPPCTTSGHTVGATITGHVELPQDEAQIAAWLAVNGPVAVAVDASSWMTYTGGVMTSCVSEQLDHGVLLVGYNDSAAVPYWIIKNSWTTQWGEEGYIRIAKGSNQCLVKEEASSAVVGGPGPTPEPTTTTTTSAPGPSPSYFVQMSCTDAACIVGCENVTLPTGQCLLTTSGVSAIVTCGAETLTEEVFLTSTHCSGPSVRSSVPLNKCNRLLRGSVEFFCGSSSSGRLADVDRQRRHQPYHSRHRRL
#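 Enzyme 1.5 nM, Z-FR-AMC 2 uM, NaOAc 100 mM pH 5.5, DTT 5 mM, Triton X-100 0.01%; 15 min RT compound preincubation; kinetic ex360/em450, 60 s delta.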
# Cruzain noTriton = cruzain (T. cruzi) inhibition without detergent | purified cruzain, Z-FR-AMC fluorescence, no detergent | P25779 | Potency, µM, for inactives: max response, negative = inhibition, usual class: inhibitors | AID 1476 | 2.3% of 200,000 active; active = well fitted curve in the direction sought with a large enough effect; inconclusive = small, poorly fitted or top-dose-only effect, or another doubt; inactive = no such curve, though single readings can be large; an effect the other way counts as inactive or inconclusive;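 note: plate controls were enzyme without inhibitor for no effect and buffer without enzyme for full effect; nearly all actives have a fitted effect of over 40% in size; top concentration of the series not given in the record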
#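 Purified cruzain at 1.5 nM, pre-incubated 15 min with compound at room temperature in 100 mM sodium acetate pH 5.5, 5 mM DTT, 0.00005% Triton X-100. Reaction started with 2 uM Z-FR-AMC; AMC fluorescence increase over 60 s gives rate.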
# 2A StopGo = FMDV 2A StopGo reporter, luciferase signal. human cells with a luciferase reporter of 2A StopGo recoding; control for the full effect not named in the record. Potency, µM (doses to about 57.9 µM), inactives show top-dose signal change, negative = less light. 1.2% of 410,000 active; active = well fitted falling curve with a large enough effect; inconclusive = small, poorly fitted or top-dose-only effect; inactive = no such curve, though single readings can be large or run the other way; tested in HEK293T cells; note: % is set by controls: 0 for no effect and ±100 for the full control effect; nearly all actives have a fitted effect of over 45% in size; luciferase light after 4 h
# Lassa entry inh = inhibitors of Lassa virus binding or cell entry | Lassa virus pseudotype entry inhibition, cell reporter; control for the full effect not named in the record | Potency, µM (titrated, usually from 37.9 µM), for the others: top-dose activity change, negative = inhibition, usual class: inhibitors | 1.2% of 300,000 active; active means well fitted inhibition curve with a large enough effect; inconclusive means small, poorly fitted or top-dose-only effect, or effect the other way; inactive means flat fitted curve, though single readings scatter; tested in HEK293 cells; note: % is set by controls: 0 for no effect and ±100 for the full control effect; nearly all actives have a fitted effect of over 50% in size; luciferase read-out
# NS1 function inh = inhibitors of influenza NS1 protein function | S. cerevisiae slowed by influenza A NS1, growth recovery by OD600 | Potency, µM (series often up to 46.1 µM), without a hit: at the highest dose activity, positive = more growth | 0.4% of 270,000 active; note: actives are rising curves; nearly all actives have a fitted effect of over 50% in size
#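 Growth recovery, yeast-based: influenza A NS1 expressed in S. cerevisiae causes slow growth, and suppressors are detected by OD600. The parent strain without NS1 is used as positive control.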
# Marburg entry inh = inhibitors of Marburg virus binding or cell entry; AID 540276; 1.8% of 300,000 active; Potency, µM (top dose mostly 37.8 µM), without a hit: top-dose activity change, negative = inhibition, usual class: inhibitors; Marburg virus pseudotyped entry inhibition, cell reporter; control for the full effect not named in the record; about a third of the inactives were read at about 46 µM; active = well fitted inhibition curve with a large enough effect; inconclusive = small, poorly fitted or top-dose-only effect, or effect the other way; inactive = flat fitted curve, though single readings scatter; tested in HEK293 cells; about a fifth of its hits are not listed in these tables; note: % is set by controls: 0 for no effect and ±100 for the full control effect; luciferase read-out
# Starred values were filed as active, the others as inactive; ? = inconclusive; nt = not tested or not shown; [ ] = another dose, or the depositor's remark. Unless noted, calls come from the whole dose curve; as a rule, active means well fitted rising curve with a large enough effect; inconclusive means small, poorly fitted or top-dose-only effect; inactive means no such curve, though single readings can be large or run the other way. Potency is the fitted concentration of half-maximal effect. Compounds as they come; overall some 4.7% were active at least once.
# Results follow in this order: SARS PLpro yeast	RE007 growth inh	Cruzain inh Det	Cruzain noTriton	2A StopGo	Lassa entry inh	NS1 function inh	Marburg entry inh
> Cc1[nH]c2ccccc2c1C(C[N+](=O)[O-])c1cccc(O)c1 (stereo not given)
    -1%	-6%	nt	nt	-4%	-14%[46.1 µM]	nt	-1%[46.1 µM]
> O=C(CCn1c(=S)[nH]c2ccccc2c1=O)N1CCCCC1
    0%	1%	nt	nt	31%[activator]	nt	10%	nt
> CCN(CCO)c1ccc(N=Cc2c(O)n(C)c(=S)[nH]c2=O)cc1
    0%	0%	nt	nt	7%	0%[46.1 µM]	0%	?
> Cc1cc(C(=O)OCC(=O)NCc2ccccc2)c2ccccc2n1
    -2%	-4%	nt	nt	?	1%	nt	?
> O=C(CCCCCNC(=O)N1CCn2c1nc1ccccc12)NCc1ccc(Cl)cc1
    1%	-3%	nt	nt	-21%	nt	-32%	nt
> NC(=O)c1c(NC(=O)c2ccc(F)cc2Cl)sc2c1CCC2
    -3%	8%	nt	nt	3%	nt	-12%	nt
> Cc1ccccc1Nc1cc(=O)oc2ccccc12
    3%[6.58 µM]	1%	2.2%	-11%	-22%	-2%	-47%	?
> Cc1cccc(N2CCN(CC(O)COCc3cccs3)CC2)c1C (stereo not given)
    -5%	2%	2.1%	-8%	0%	-1%	0%	11%
> COc1ccc(CN2C(=O)c3cccnc3C2=O)cc1S(=O)(=O)N1CCCC(C)C1 (stereo not given)
    2%	14%	nt	nt	-6%	nt	-3%	nt
> CCN(CC)CCCN=C(C)C1=C(O)c2ccccc2C1=O
    1%	6%	nt	nt	-3%	?	-15%	-17%
> COC(=O)Cn1c(C)nc(=O)c(-c2ccccc2)c1C
    0%	8%	6.5%	5%	-2%	-8%	?	13%
> CCC(C)c1ccc(NC(=O)c2c([N+](=O)[O-])cnn2CC)cc1 (stereo not given)
    -16%	-8%	nt	nt	12%	-6%	-47%	-18%
> Cc1cc(C)c(C(=O)Nc2ccc(S(=O)(=O)Nc3onc(C)c3C)cc2)c(C)c1
    -14%	1%	-7.0%	-2%	-24%	nt	-45%	nt
> CCc1cc(=O)oc2cc(OCC(=O)NCc3ccccn3)ccc12
    6%	-21%	nt	nt	-15%	15%[46.1 µM]	-8%	-12%[46.1 µM]
> COc1ccc2nc(C)c3c(c2c1)OC(C)C3 (stereo not given)
    2%	-6%	-1.5%	8%	-13%	21%	?	3%
> Cc1ccc(-c2cc(-c3ccccc3C)[nH]n2)c(O)c1
    -92%	?	-16%	-11%	18%	?	5%	?
> O=C(Nc1ccc(S(=O)(=O)C(F)F)cc1)c1ccc2c(=O)n3c(nc2c1)CCC3
    2%	-5%	nt	nt	?	-7%	nt	-1%
> Cc1nc2c(-c3ccccc3)c(C)nn2c(C)c1CCC(=O)NCc1ccccc1
    nt	nt	1.7%	-8%	-10%	11%[46.1 µM]	nt	3%[46.1 µM]
> COc1cccc(-c2nnc(NC(=O)c3ccc(Cl)s3)o2)c1
    -29%	-15%	6.0%	-14%	-1%	0%	-84%	28%
> Cc1cccc(NC(=O)CS(=O)(=O)c2cccc3nsnc23)c1
    nt	nt	-2.7%	7%	?	?	nt	nt
> Cc1cccc(C)c1OCC(O)CN1CCc2ccccc2C1 (stereo not given)
    nt	-19%	nt	nt	-2%	-10%	nt	?
> COc1ccc(N(CC(=O)Nc2ccc3c(c2)OCO3)S(=O)(=O)c2ccccc2)cc1
    -1%	6%	nt	nt	-3%	15%[46.1 µM]	0%	17%[46.1 µM]
> O=C(Nc1cc(Cl)ccc1Cl)C1Cc2ccccc2O/C1=N\O (stereo not given)
    1%	-18%	nt	nt	-20%	15%[46.1 µM]	-5%	-2%[46.1 µM]
> O=C(O)c1cccc(-n2c(/C=C/c3ccccc3)nc3ccccc3c2=O)c1
    -1%	-10%	nt	nt	-8%	?	13%	-9%[46.1 µM]
> COc1ccc(-c2csc(-c3ccc(O)cc3)n2)cc1
    5%	15%	nt	nt	20%	nt	-2%	nt
> Cc1cccc(C(=O)NC2CC3CCCC(C2)N3C(=O)Nc2ccccc2)c1 (stereo not given)
    -1%	11%	nt	nt	-6%	3%[46.1 µM]	-1%	?
> COC(=O)c1c(NC(=O)/C(C#N)=C/c2ccccc2)sc2c1C(C(=O)OC)CC2 (stereo not given)
    nt	nt	-5.0%	6%	-5%	?	nt	nt
> CN(C)/C(=C\C(=O)c1ccccc1)C(=O)c1ccccc1
    nt	-11%	nt	nt	-14%	19%	nt	7%
> CCCOC(=O)Nc1ccc(S(=O)(=O)Nn2cnnc2)cc1
    4%	4%	2.0%	-7%	3%	17%	-10%	14%
> COc1ccc(NC(=O)c2cc(S(=O)(=O)Nc3ccc(OC)cc3)cs2)cc1
    0%	15%	nt	nt	-18%	nt	-8%	nt

# Reprinted from the entries so far for reference:
# Results follow in this order: SARS PLpro yeast	RE007 growth inh	Cruzain inh Det	Cruzain noTriton	2A StopGo	Lassa entry inh	NS1 function inh	Marburg entry inh
> COC(=O)c1c(NC(=O)/C(C#N)=C/c2ccccc2)sc2c1C(C(=O)OC)CC2 (stereo not given)
    nt	nt	-5.0%	6%	-5%	?	nt	nt
> CN(C)/C(=C\C(=O)c1ccccc1)C(=O)c1ccccc1
    nt	-11%	nt	nt	-14%	19%	nt	7%
> CCCOC(=O)Nc1ccc(S(=O)(=O)Nn2cnnc2)cc1
    4%	4%	2.0%	-7%	3%	17%	-10%	14%

# (listing goes on)
# Results follow in this order: SARS PLpro yeast	RE007 growth inh	Cruzain inh Det	Cruzain noTriton	2A StopGo	Lassa entry inh	NS1 function inh	Marburg entry inh
> COCCCn1c(N)c(C(=O)NCCC(C)C)c2nc3ccccc3nc21
    -9%	?	-7.2%	?	-13%	-10%	-89%	?
> C=CCn1c(SCC(=O)NCCC2=CCCCC2)nc2ccc(Cl)cc2c1=O
    1%	21%	5.3%	1%	?	0%	5%	-4%[46.1 µM]
> COc1ccc(C(=O)n2nc(-c3ccco3)nc2NCc2cccs2)cc1
    nt	nt	-7.9%	-5%	28%	12%[46.1 µM]	nt	8%[46.1 µM]
> Cn1nnnc1SCCCNCc1cccc(OCc2ccccc2Cl)c1
    nt	nt	-4.2%	6%	-13%	?	nt	?
> Cc1ccc(/C=C/c2onc(C)c2S(=O)(=O)N2CCC(C(=O)NCc3ccc(OC(C)C)cc3)CC2)cc1
    nt	nt	0.0%	-4%	-14%	-7%[46.1 µM]	nt	nt
> Cc1ccc(-c2ccc(=O)n(CCC(=O)N3CCN(c4cccc(C)c4)C(C)C3)n2)cc1 (stereo not given)
    -2%	1%	nt	nt	?	nt	-4%	nt
> CCOc1ccc(C2C(C(=O)OC)=C(C)N=C3SCCC(=O)N32)cc1OCC (stereo not given)
    -9%	13%	-0.7%	29%	-3%	-22%	-6%	-18%
> CC(=O)c1ccc(OCCCC(=O)Nc2cccc(S(=O)(=O)N3CCCCC3)c2)cc1
    -1%	-3%	nt	nt	?	-27%	nt	-24%
> N#CC(C#N)=NNc1ccc(S(N)(=O)=O)cc1
    0%	2%	nt	nt	-10%	nt	5%	nt
> COC(=O)C1=C(CSc2nncn2C)NC(=O)NC1c1ccc(F)cc1 (stereo not given)
    0%	7%	0.4%	-6%	11%	11%	2%	13%
> CC1Cc2cc(/C(O)=C3/C(=O)C(=O)N(CCN4CCOCC4)C3c3ccc(C(C)C)cc3)ccc2O1 (stereo not given)
    8%	6%	nt	nt	-5%	0%[46.1 µM]	9%	7%[46.1 µM]
> COc1ccc(-c2c(C)n([O-])c3c([n+]2=O)CCCC3)c(OC)c1
    -3%	-15%	-0.5%	-6%	7%	-2%	2%	25%
> COc1ccccc1C(=O)COC(=O)CNS(=O)(=O)c1ccc(C)c(C)c1
    -2%	-11%	nt	nt	-1%	13%	nt	4%
> COCCn1c(N)c(C(=S)NC(=O)c2cccs2)c(=O)[nH]c1=O
    0%	7%	nt	nt	2%	nt	0%	nt
> Cc1ccc(NC(=O)CN(C)C(=O)Cc2coc3cc(C)c(C)cc23)cc1
    nt	5%	nt	nt	-9%	22%	nt	0%[46.1 µM]
> Cc1cc(SCC(=O)Nc2ncc(Cl)cc2Cl)nc2ccccc12
    4%	16%	-10%	-1%	-16%	?	-25%	?
> CN(C)c1ccc(NC(=O)N2CCOCC2)cc1
    -17%	6%	-3.0%	-1%	60%[activator]	-6%	25%	13%
> COc1ccc(N2CCN(C(=O)c3ccc(Cn4c(=S)[nH]c5ccc(N6CCOCC6)cc5c4=O)cc3)CC2)cc1
    1%	15%	nt	nt	51%[activator]	14%	nt	12%[46.1 µM]
> Cn1c(SCC2CCCO2)nnc1-c1ccc([N+](=O)[O-])cc1 (stereo not given)
    -1%	2%	nt	nt	19%	12%	7%	9%
> Cc1cccc(NC(=O)N2CCCc3ccccc32)c1C
    5%	-8%	nt	nt	-2%	-2%[46.1 µM]	-9%	?
> COc1ccccc1C(=O)NC(=O)COC(=O)C1CCC1
    -4%	5%	nt	nt	0%	2%	nt	0%
> Cc1c(C(=O)N2CCCC(C)C2)sc2ncnc(N3CCCCC3C)c12 (stereo not given)
    -7%	9%	nt	nt	-19%	-16%[46.1 µM]	nt	?
> CCc1ccc(N2CCN(CCNC(=O)Nc3ccc(OC)cc3)CC2)cc1
    3%	5%	nt	nt	-5%	nt	2%	nt
> CC(O)(CS(=O)(=O)c1cccc(C(F)(F)F)c1)C(=O)Nc1ccc(C(F)(F)F)cc1 (stereo not given)
    2%	-7%	-6.0%	12%	-12%	-2%	7%	?
> COc1ccc(Cc2nc3ccc(C(=O)NC(C)c4cnn(C)c4)cc3o2)cc1 (stereo not given)
    0%	0%	nt	nt	-16%	5%	-11%	14%
> CCc1nnc(NC(=O)CN2C(=O)c3ccccc3S2(=O)=O)s1
    6%	19%	-3.2%	-3%	nt	2%	0%	7%
> Cc1cccc(-n2ncc3c(NCc4cccnc4)ncnc32)c1
    -3%	-3%	nt	nt	21%	nt	-4%	nt

# Screens as filed in PubChem BioAssay.
